Mtb MbtI inh: MbtI salicylate synthase inhibitors, primary screen, biochemical, fluorescence intensity; 100,000 tested, 0.89% active; inhibition, %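 (about 17 µg/mL by stock and volumes)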; AID 493033, 2011; purified MbtI enzyme, fluorescence intensity read-out; P9WFX0;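 active means above 50% in both replicates, above 80% if mildly self-fluorescent; inactive means the rest, strongly fluorescent compounds included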;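 further: 0% = mean of negative and 100% = mean of positive controls; one replicate is shown; some compounds called inactive have numbers as strong as hits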
Target sequence (P9WFX0 whole entry, looked up): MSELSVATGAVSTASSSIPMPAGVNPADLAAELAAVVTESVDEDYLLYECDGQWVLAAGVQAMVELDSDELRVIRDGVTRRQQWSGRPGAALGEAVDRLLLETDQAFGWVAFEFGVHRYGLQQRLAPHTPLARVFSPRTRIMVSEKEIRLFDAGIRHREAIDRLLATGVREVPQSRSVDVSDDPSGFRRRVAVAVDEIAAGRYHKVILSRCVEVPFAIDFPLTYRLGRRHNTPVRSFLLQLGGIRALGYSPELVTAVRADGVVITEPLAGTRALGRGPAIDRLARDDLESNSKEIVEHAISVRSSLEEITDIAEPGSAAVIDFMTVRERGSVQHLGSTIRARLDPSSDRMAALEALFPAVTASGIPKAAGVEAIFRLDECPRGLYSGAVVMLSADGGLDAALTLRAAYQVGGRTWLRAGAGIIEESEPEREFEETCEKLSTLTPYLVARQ
MenB inh: M. tuberculosis MenB inhibitors, primary screen, biochemical, absorbance; 1,4-dihydroxy-2-naphthoyl-CoA synthase (Mycobacterium tuberculosis (strain ATCC 25618 / …; MenB enzyme assay, absorbance read-out; some hits fall short of the stated cut; inhibition, %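 (about 12 µg/mL by stock and volumes)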; 100,000 tested, 0.43% active; AID 540299, 2011;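 active means mean of two replicates above 30%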;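 further: 0% = no compound and 100% = wells with inactive enzyme; the first replicate is given; strong numbers were not always called active; inactives centre near -10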
PV pol inh: poliovirus RdRp elongation inhibitors, primary screen, biochemical, fluorescence polarization, total intensity. poliovirus polymerase elongation; hits give low values. % elongation, % (compound at 16.7 µg/mL). 150,000 tested, 0.66% active; in the data active means % elongation below about 90%; further: some results filed as inactive read as strong as hits
Target sequence (P03300 1749-2209 limits assumed): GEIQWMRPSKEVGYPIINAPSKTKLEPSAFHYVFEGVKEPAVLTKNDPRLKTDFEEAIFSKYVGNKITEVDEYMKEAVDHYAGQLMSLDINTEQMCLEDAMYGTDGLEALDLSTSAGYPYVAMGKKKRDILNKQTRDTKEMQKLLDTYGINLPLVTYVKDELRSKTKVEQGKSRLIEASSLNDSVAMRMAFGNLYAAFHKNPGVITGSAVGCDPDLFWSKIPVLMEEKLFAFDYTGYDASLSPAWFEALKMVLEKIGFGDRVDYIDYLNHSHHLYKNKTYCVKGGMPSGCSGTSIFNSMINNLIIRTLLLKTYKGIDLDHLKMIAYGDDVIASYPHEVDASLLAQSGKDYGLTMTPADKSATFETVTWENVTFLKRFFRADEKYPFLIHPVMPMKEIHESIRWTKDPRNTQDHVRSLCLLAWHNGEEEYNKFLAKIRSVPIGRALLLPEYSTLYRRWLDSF
PV pol inh intensity: second read-out of PV pol inh, no call of its own (marks repeat the call); % elongation; measured here: total intensity read-out; formula for this scale not given here;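 total fluorescence in place of polarization; lower means less elongation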
The depositor's hits bear a star.

Screening CC1CCCN(C(=O)CCS(=O)(=O)c2cc(Br)cc3c2N(C(=O)C2CC2)CC3)C1 (configuration not stated) returned Mtb MbtI inh -4, MenB inh -23, PV pol inh 100 and PV pol inh intensity 95.
Screening N#Cc1ccc(NC(=O)CSc2nc3ccccc3[nH]2)cc1 returned Mtb MbtI inh -24, MenB inh -62, PV pol inh 100 and PV pol inh intensity 102.
Cc1noc(C)c1COc1ccc(C(=O)OCC(=O)N(C)C2(C#N)CCCCC2)cc1 was read as Mtb MbtI inh 9 and MenB inh -13.
CCOC(=O)c1[nH]c2ccccc2c1NC(=O)c1ccc(N2C(=O)CCC2=O)cc1 was read as Mtb MbtI inh 5, MenB inh -6, PV pol inh 102 and PV pol inh intensity 102.
Screening CCc1ccc(-n2c(SCC(=O)NCC(C)C)nnc2-c2ccncc2)cc1 returned Mtb MbtI inh 1, MenB inh -13, PV pol inh 104 and PV pol inh intensity 103.
O=C(Cn1cnc2onc(-c3ccc(F)cc3)c2c1=O)NC1CCN(Cc2ccccc2)CC1 was read as Mtb MbtI inh -6, MenB inh 14, PV pol inh 103 and PV pol inh intensity 98.
For Fc1ccc(Cn2c3ccccc3c3nn4cnnc4nc32)cc1 the results were Mtb MbtI inh 9, MenB inh -30, PV pol inh 93 and PV pol inh intensity 112.
For c1ccc(CNCC2CC2)cc1 the results were Mtb MbtI inh -6, MenB inh 8, PV pol inh 98 and PV pol inh intensity 101.
Screening Clc1c(-c2nnc(-c3cccs3)o2)sc2ccccc12 returned Mtb MbtI inh -413, MenB inh -1, PV pol inh 103 and PV pol inh intensity 102.
For O=S1(=O)CC(c2ccccc2)CS(=O)(=O)C1CC1S(=O)(=O)CC(c2ccccc2)CS1(=O)=O (configuration not stated) the results were Mtb MbtI inh -8, MenB inh -14, PV pol inh 98 and PV pol inh intensity 93.
COC(=O)Oc1cc2oc(=O)sc2cc1Cl was read as Mtb MbtI inh 36, MenB inh -76, PV pol inh 102 and PV pol inh intensity 108.
`Oc1c(CN2CCOCC2)cc(Cl)c2cccnc12` gave Mtb MbtI inh 9, MenB inh -22, PV pol inh 164 and PV pol inh intensity 176.
`c1ccc(-c2nnc3n2N=C(c2cccs2)CS3)cc1` gave Mtb MbtI inh -10, MenB inh -4, PV pol inh 105 and PV pol inh intensity 100.
CCOc1ccc2nc(NC(=O)c3ccccc3OC)sc2c1 was read as Mtb MbtI inh 21 and MenB inh 4.
COC(=O)Cn1c2ccc(Cl)cc2c2nc3ccccc3nc21 was read as Mtb MbtI inh -221, MenB inh 5, PV pol inh 104 and PV pol inh intensity 105.
O=C(CCn1cnc2onc(-c3ccc(F)cc3)c2c1=O)N1CCCc2ccccc21 was read as Mtb MbtI inh 7, MenB inh -20, PV pol inh 102 and PV pol inh intensity 101.
For O=C(c1ccc(S(=O)(=O)N2CCOCC2)cc1)n1nnc2ccccc21 the results were Mtb MbtI inh 0, MenB inh -5, PV pol inh 103 and PV pol inh intensity 100.
COC(C)(C)CCC[C@H](C)C/C=C/C(C)=C/C(=O)OC(C)C was read as Mtb MbtI inh -12, MenB inh 1, PV pol inh 99 and PV pol inh intensity 102.
CCC(C)C(C(=O)O)N1C(=O)c2ccccc2C1=O (configuration not stated) was read as Mtb MbtI inh 1, MenB inh 4, PV pol inh 98 and PV pol inh intensity 99.
For COC(=O)NNc1ncccc1C(F)(F)F the results were Mtb MbtI inh 3, MenB inh -8, PV pol inh 104 and PV pol inh intensity 102.
O=C1c2ccccc2-c2nc3ccccc3c(=O)n21 was read as Mtb MbtI inh 14, MenB inh -14, PV pol inh 104 and PV pol inh intensity 99.
`CCCC(c1nnnn1CC1CCCO1)N(Cc1cc2cc(C)cc(C)c2[nH]c1=O)C1CCCC1` (configuration not stated) gave Mtb MbtI inh -3, MenB inh 2, PV pol inh 105 and PV pol inh intensity 101.
For CC(=O)OCC1=C(C(=O)O)N2C(=O)[C@@H](N)[C@H]2SC1 the results were Mtb MbtI inh -6, MenB inh 2, PV pol inh 100 and PV pol inh intensity 102.
For CCc1noc(C)c1C(=O)OCC(=O)Nc1ccc(NC(C)=O)cc1 the results were Mtb MbtI inh -13, MenB inh 10, PV pol inh 108 and PV pol inh intensity 108.
Screening N#CCC(=O)N/N=C/c1cc2ccccc2[nH]1 returned Mtb MbtI inh 34, MenB inh -25, PV pol inh 99 and PV pol inh intensity 103.
`CC1CCCN(CC(=O)c2ccccc2F)C1` (configuration not stated) gave Mtb MbtI inh 9, MenB inh 2, PV pol inh 111 and PV pol inh intensity 126.
For Clc1cccc(Cl)c1Cn1nnc(N2CCCC2)n1 the results were Mtb MbtI inh -4, MenB inh -19, PV pol inh 103 and PV pol inh intensity 113.
Screening CC(=O)Nc1cccc2ncccc12 returned MenB inh 0, PV pol inh 104 and PV pol inh intensity 96.
`CC1CCCCC1NC(=O)CCn1nc(-c2ccccc2)ccc1=O` (configuration not stated) gave Mtb MbtI inh 7, MenB inh 10, PV pol inh 99 and PV pol inh intensity 101.
C/C(CC1(O)/C(=N/O)CCc2nonc21)=N\O (configuration not stated) was read as Mtb MbtI inh -4, MenB inh 13, PV pol inh 100 and PV pol inh intensity 100.
For N#Cc1ccsc1NC(=O)COC(=O)c1cc(-c2ccccc2)nn1-c1ccccc1 the results were Mtb MbtI inh -8, MenB inh -7, PV pol inh 141 and PV pol inh intensity 154.
`CC(=O)O/N=C1\Sc2ccccc2C1=O` gave Mtb MbtI inh 68, MenB inh -67, PV pol inh 97 and PV pol inh intensity 99.
CC(C(=O)NC1CCCCCC1)n1c2ccccc2c2cnn(C)c(=O)c21 (configuration not stated) was read as Mtb MbtI inh -5, MenB inh -31, PV pol inh 105 and PV pol inh intensity 100.
NC1CN2CCC1CC2 (configuration not stated) was read as Mtb MbtI inh 7, MenB inh -28, PV pol inh 98 and PV pol inh intensity 93.
For O=C(c1cc2ccccc2oc1=O)N(c1ccccn1)C1CCCCC1 the results were Mtb MbtI inh 0, PV pol inh 103 and PV pol inh intensity 98.
Screening O=C(C1CCN(S(=O)(=O)c2ccccc2)CC1)N1CCCC1 returned Mtb MbtI inh -11, PV pol inh 102 and PV pol inh intensity 98.
For CCCCc1oc2ccccc2c1C(=O)c1ccc(O)cc1 the results were Mtb MbtI inh 12, MenB inh -21, PV pol inh 99 and PV pol inh intensity 103.
For O=C(Nc1ccncc1)c1cc2cccnc2n(Cc2ccccc2)c1=O the results were Mtb MbtI inh 32, MenB inh -23, PV pol inh 107 and PV pol inh intensity 113.
CCOc1ccc(-n2c(CSc3nc4ccccc4o3)nc3ccccc3c2=O)cc1 was read as Mtb MbtI inh -4, MenB inh -5, PV pol inh 103 and PV pol inh intensity 110.
For COC(=O)C1(CCSC)NC(c2ccc(N(C)C)cc2)C2C(=O)N(C)C(=O)C21 (configuration not stated) the results were Mtb MbtI inh -9, MenB inh 3, PV pol inh 103 and PV pol inh intensity 102.
`Cc1c(/C=N/NC(=O)c2cc(Br)ccc2O)c(=O)n(C)c(=O)n1C` gave Mtb MbtI inh -19, MenB inh -34, PV pol inh 106 and PV pol inh intensity 103.
Screening CCc1nnc(NC2=NS(=O)(=O)C(c3cccc(Br)c3)=C2C)s1 returned Mtb MbtI inh 23, MenB inh 4, PV pol inh 102 and PV pol inh intensity 102.
For NC(=O)CCC1COc2ccccc2O1 (configuration not stated) the results were Mtb MbtI inh -7, MenB inh 10, PV pol inh 104 and PV pol inh intensity 103.
Screening O=C(CSc1ncnc2[nH]ncc12)c1ccccc1 returned Mtb MbtI inh -2, MenB inh 1, PV pol inh 101 and PV pol inh intensity 103.
`COC(=O)Cn1cnc2c1c(=O)n(C)c(=O)n2C` gave Mtb MbtI inh 9, MenB inh -13, PV pol inh 103 and PV pol inh intensity 103.

Brought forward from above: six entries; new compounds follow.
For COC(=O)C1(CCSC)NC(c2ccc(N(C)C)cc2)C2C(=O)N(C)C(=O)C21 (configuration not stated) the results were Mtb MbtI inh -9, MenB inh 3, PV pol inh 103 and PV pol inh intensity 102.
`Cc1c(/C=N/NC(=O)c2cc(Br)ccc2O)c(=O)n(C)c(=O)n1C` gave Mtb MbtI inh -19, MenB inh -34, PV pol inh 106 and PV pol inh intensity 103.
Screening CCc1nnc(NC2=NS(=O)(=O)C(c3cccc(Br)c3)=C2C)s1 returned Mtb MbtI inh 23, MenB inh 4, PV pol inh 102 and PV pol inh intensity 102.
For NC(=O)CCC1COc2ccccc2O1 (configuration not stated) the results were Mtb MbtI inh -7, MenB inh 10, PV pol inh 104 and PV pol inh intensity 103.
Screening O=C(CSc1ncnc2[nH]ncc12)c1ccccc1 returned Mtb MbtI inh -2, MenB inh 1, PV pol inh 101 and PV pol inh intensity 103.
`COC(=O)Cn1cnc2c1c(=O)n(C)c(=O)n2C` gave Mtb MbtI inh 9, MenB inh -13, PV pol inh 103 and PV pol inh intensity 103.
Cc1nn(-c2ccccc2)c(Cl)c1C1C(C#N)=C(N)OC2=C1C(=O)CCC2 (configuration not stated) was read as Mtb MbtI inh 2, MenB inh -18, PV pol inh 104 and PV pol inh intensity 104.
Screening Oc1ccccc1CNc1ccc(F)c(Cl)c1 returned Mtb MbtI inh -6, MenB inh -14, PV pol inh 102 and PV pol inh intensity 108.
Screening O=S1(=O)CCC(N=Cc2ccc(-c3cccc(C(F)(F)F)c3)o2)C1 (configuration not stated) returned MenB inh -15, PV pol inh 105 and PV pol inh intensity 106.
O=C(O)CCCNc1ncnc2ccccc12 was read as Mtb MbtI inh 7, MenB inh 33, PV pol inh 97 and PV pol inh intensity 103.
For Cc1cnc(C(=O)Nc2ccccc2F)cn1 the results were Mtb MbtI inh -12, PV pol inh 102 and PV pol inh intensity 99.
Cc1noc(C)c1C(=O)N(C)C1CCCc2ccccc21 (configuration not stated) was read as Mtb MbtI inh -8, MenB inh -12, PV pol inh 101 and PV pol inh intensity 140.
CCN(CC)c1ccc(NC(=O)Nc2ccc(Cl)cc2)cc1 was read as Mtb MbtI inh -20, MenB inh -109, PV pol inh 104 and PV pol inh intensity 102.
`O=C(CSCc1ccccc1Cl)NC1CC1` gave Mtb MbtI inh -9, MenB inh -11, PV pol inh 97 and PV pol inh intensity 102.
`CCOC(=O)c1c(C)oc2c1c(CN1CCN(c3ccccc3)CC1)c(O)c1ccccc12` gave Mtb MbtI inh 19, MenB inh 5, PV pol inh 104 and PV pol inh intensity 104.
CCc1c(O)nc(SC(C)C(=O)Nc2ccc(S(N)(=O)=O)cc2)n(-c2ccccc2)c1=O (configuration not stated) was read as Mtb MbtI inh -13, MenB inh 3, PV pol inh 101 and PV pol inh intensity 102.
Screening O=c1c2cc(N3CCOCC3)ccc2[nH]c(=S)n1CCc1ccccc1 returned Mtb MbtI inh 0, MenB inh -34, PV pol inh 97 and PV pol inh intensity 106.
Screening O=S1(=O)CCC2CC=CCC21 (configuration not stated) returned Mtb MbtI inh -3, MenB inh -47, PV pol inh 101 and PV pol inh intensity 101.
For CC(C)(C)NC(=O)/C=C/c1ccc(Cl)cc1 the results were Mtb MbtI inh 8, MenB inh -16, PV pol inh 101 and PV pol inh intensity 103.
For CC(C)(C)c1cc(C(=O)NCCCn2ccnc2)cc(C(C)(C)C)c1 the results were Mtb MbtI inh -4, MenB inh -28, PV pol inh 102 and PV pol inh intensity 96.
For Cc1noc2ncn(CC(=O)NC(C)C)c(=O)c12 the results were Mtb MbtI inh -6, MenB inh -27, PV pol inh 104 and PV pol inh intensity 100.
`O=C1NN=C(c2ccccc2)Cn2c1cc1ccccc12` gave Mtb MbtI inh 6, MenB inh -46, PV pol inh 100 and PV pol inh intensity 99.
`COc1ccc(C(=O)CSc2nnc(-c3ccco3)c(-c3ccco3)n2)cc1` gave Mtb MbtI inh 54, MenB inh 30*, PV pol inh 98 and PV pol inh intensity 94.
Screening Cc1nc2cc(-c3ccccc3)nn2c(C)c1CCC(=O)NCc1ccco1 returned Mtb MbtI inh -8, MenB inh -23, PV pol inh 100 and PV pol inh intensity 100.

Compound activity from PubChem BioAssay.
